Vaccinia inh: blocks a specific stage of Vaccinia orthopoxvirus infection, primary screen, cell-based, single point. Vaccinia-infected cells, mCherry/Venus stage reporter fluorescence; active compounds read low; some inactives read as strong as hits. activity change (mCherry), % (concentration not given with the values). 0.01% of 89,000 active. AID 1053133, 2014;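 active = mCherry past -33% and 40 or more points under the early reporter, replicates agreeing; inconclusive = past -33% without that gap or agreement; tested in A549 cells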;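 note: scaled between vehicle wells and reference inhibitor wells; 23 nL library stock went into each well; one replicate is shown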
Vaccinia inh Venus: second read-out of Vaccinia inh, no call of its own (marks repeat the call); activity change (Venus), %; measured here: Venus reporter, other viral stage;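 negative = less Venus signal; first of two replicates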
Numbers without * were called inactive; ? = inconclusive; / = no result given; & = joins results of further samples.

Values in the order: Vaccinia inh | Vaccinia inh Venus
[1] CN(C)C(=O)c1cccc(-c2ccc([C@@H]3[C@H]4CN(C(=O)C5CC5)CC(=O)N4[C@H]3CO)cc2)c1
    5 | 7
[2] C[C@@H]1CN([C@H](C)CO)C(=O)c2ccccc2-c2ccccc2CO[C@H]1CN(C)C(=O)Nc1cccc(F)c1
    10 | 1
[3] COc1ccc([Si](C)(C)[C@@H]2[C@@H](CCO)O[C@]3(C(=O)N(Cc4ccccc4)c4ccc(N5CCC5=O)cc43)[C@H]2C)cc1
    ? | /
[4] CCCNC(=O)N(C)C[C@H]1Oc2cc(C#CCOC)ccc2S(=O)(=O)N([C@@H](C)CO)C[C@@H]1C
    7 | 8
[5] CCC(=O)N1CCC2(CC1)CN(Cc1cc(F)ccc1F)[C@@H](CO)c1c2c2ccc(OC)cc2n1C
    16 | -2
[6] C[C@@H]1CN([C@H](C)CO)C(=O)c2cc(NC(=O)C3CC3)ccc2O[C@@H]1CN(C)CC1CC1
    -8 | -2
[7] OCCSCC(O)CC(O)c1ccccc1 (centres undefined)
    20 | 11
[8] C[C@@H]1CCCCO[C@H](CN(C)S(=O)(=O)c2cccs2)[C@@H](C)CN([C@H](C)CO)C(=O)c2cc(NS(=O)(=O)c3ccc(Cl)cc3)ccc2O1
    17 | -3
[9] Cc1cccc(S(=O)(=O)N(C)C[C@H]2OCc3cnnn3CCCC(=O)N([C@H](C)CO)C[C@H]2C)c1
    26&4 | 10&4
[10] COc1ccc(S(=O)(=O)N[C@H]2CC[C@@H](CCNC(=O)CN3CCOCC3)O[C@@H]2CO)cc1
    11 | 19
[11] C[C@@H]1CN([C@H](C)CO)C(=O)Cc2cc(NS(=O)(=O)c3cn(C)cn3)ccc2O[C@H]1CN(C)C(=O)Nc1ccc(C(F)(F)F)cc1
    6 | 9
[12] COc1ccc(NC(=O)N(C)C[C@H]2OCCCC[C@@H](C)Oc3ccc(NS(=O)(=O)c4cn(C)cn4)cc3C(=O)N([C@@H](C)CO)C[C@H]2C)cc1
    19 | 9
[13] C[C@H](CO)N1C[C@H](C)[C@H](CN(C)C(=O)Nc2ccccc2)OCc2cnnn2CCCC1=O
    3 | -3
[14] C[C@@H]1CN([C@@H](C)CO)C(=O)Cc2cc(NC(=O)Nc3cccc4ccccc34)ccc2O[C@@H]1CN(C)S(C)(=O)=O
    18 | 17
[15] O=C1[C@@H]2[C@H](C(=O)N1c1ccccc1)[C@@]13COC[C@H](c4ccccc4)N1C(=O)[C@]2(C(=O)NCc1ccccc1)O3
    -4 | -1
[16] O=C(NC1CC1)C1=C[C@@H](C2CC2)C[C@@H](OCCCCO)O1
    19 | -1
[17] CN1C(=O)c2cc(NC(=O)c3ccc(Cl)cc3)ccc2OC[C@H]2O[C@@H](CC(=O)NCc3cccc(F)c3)CC[C@@H]21
    11 | 7
[18] C[C@@H]1CCCCO[C@@H](CN(C)C(=O)c2ccccc2)[C@@H](C)CN([C@@H](C)CO)C(=O)c2cc(NS(=O)(=O)c3ccccc3)ccc2O1
    25 | 19
[19] C[C@@H]1CN([C@@H](C)CO)C(=O)c2cc(NS(=O)(=O)c3cccs3)ccc2O[C@@H]1CN(C)CC1CC1
    4 | -2
[20] C[C@H]1CN([C@@H](C)CO)C(=O)Cc2cc(NC(=O)C3CC3)ccc2O[C@@H]1CN(C)Cc1ccc(C(=O)O)cc1
    24 | 10

In the list so far, 2 contain a thiophene ring, fused or not:
Values in the order: Vaccinia inh | Vaccinia inh Venus
[8] C[C@@H]1CCCCO[C@H](CN(C)S(=O)(=O)c2cccs2)[C@@H](C)CN([C@H](C)CO)C(=O)c2cc(NS(=O)(=O)c3ccc(Cl)cc3)ccc2O1
    17 | -3
[19] C[C@@H]1CN([C@@H](C)CO)C(=O)c2cc(NS(=O)(=O)c3cccs3)ccc2O[C@@H]1CN(C)CC1CC1
    4 | -2

Following part
Values in the order: Vaccinia inh | Vaccinia inh Venus
[21] COc1ccc(CN(C)C[C@@H]2OCCCC[C@@H](C)Oc3ccc(NC(=O)C4CCCCC4)cc3C(=O)N([C@@H](C)CO)C[C@H]2C)cc1
    ? | /
[22] C[C@H]1CN([C@@H](C)CO)C(=O)CCCn2nncc2CO[C@H]1CN(C)C(=O)NC1CCCCC1
    4 | 2
[23] COc1ccc(S(=O)(=O)N(C)C[C@@H]2OCCCC[C@@H](C)Oc3ccc(NC(=O)NC(C)C)cc3C(=O)N([C@@H](C)CO)C[C@@H]2C)cc1
    16 | 12
[24] C[C@H]1CN([C@@H](C)CO)C(=O)c2cccc(NS(=O)(=O)c3cn(C)cn3)c2O[C@@H]1CN(C)Cc1ccncc1
    11 | 5
[25] CCC(=O)Nc1ccc2c(c1)C(=O)N(C)C[C@H](OC)[C@@H](C)CN(C(=O)c1ccccc1F)[C@H](C)CO2
    13 | 6
[26] O=C([C@@H]1[C@@H](CO)[C@@H]2Cn3c(cccc3=O)[C@H]1N2C(=O)CC1CC1)N1CCCCC1
    23 | 8
[27] COc1ccc(S(=O)(=O)N(C)C[C@H]2Oc3ccc(NS(=O)(=O)c4cn(C)cn4)cc3CC(=O)N([C@@H](C)CO)C[C@@H]2C)cc1
    -3 | 4
[28] C[C@H]1CN([C@@H](C)CO)C(=O)CCCn2nncc2CO[C@@H]1CN(C)C(=O)Nc1ccc(C(F)(F)F)cc1
    16 | 14
[29] CC(C)NC(=O)N(C)C[C@@H]1Oc2c(NC(=O)C3CC3)cccc2C(=O)N([C@H](C)CO)C[C@@H]1C
    11 | 12
[30] CCC(=O)Nc1ccc2c(c1)C(=O)N(C)[C@H]1CC[C@H](CC(=O)N3CCCCC3)O[C@H]1CO2
    0 | 7
[31] C[C@@H]1CN([C@H](C)CO)C(=O)c2cc(NS(C)(=O)=O)ccc2O[C@@H]1CN(C)Cc1ccc(C(=O)O)cc1
    18 | 14
[32] C[C@@H]1CN([C@@H](C)CO)C(=O)c2cc(NC(=O)C3CCCCC3)ccc2O[C@@H](C)CCCCO[C@@H]1CN(C)S(=O)(=O)c1cn(C)cn1
    11 | 8
[33] C[C@@H]1CN([C@@H](C)CO)C(=O)c2cc(NC(=O)Nc3ccc(F)cc3)ccc2O[C@@H](C)CCCCO[C@H]1CN(C)C(=O)C1CCCCC1
    -23 | -15
[34] COc1ccc(S(=O)(=O)N(C)C[C@@H]2Oc3ccc(NC(=O)Cc4cn(C)c5ccccc45)cc3C(=O)N([C@H](C)CO)C[C@H]2C)cc1
    -15 | -14
[35] O=C(C[C@H]1CC[C@@H]2[C@H](COC[C@H](O)CN2Cc2cocn2)O1)N[C@@H]1CCN(Cc2ccccc2)C1
    2 | 23
[36] C/C=C/c1cnc2c(c1)C(=O)N([C@@H](C)CO)C[C@H](C)[C@H](CN(C)C(=O)C1CCOCC1)O2
    6 | -6
[37] COc1ccc(CN(C)C[C@H]2OCCCC[C@H](C)Oc3ccc(NS(=O)(=O)c4ccc(C)cc4)cc3C(=O)N([C@H](C)CO)C[C@H]2C)cc1
    ? | /
[38] COCC(=O)N(C)C[C@@H]1Oc2cc(C3=CCCCC3)ccc2S(=O)(=O)N([C@H](C)CO)C[C@H]1C
    4 | -3
[39] COc1ccc2c3c([nH]c2c1)[C@H](CO)N(C(=O)CC1CC1)CC31CCN(Cc2cccnc2)CC1
    -1 | -6
[40] C[C@H]1CN([C@@H](C)CO)S(=O)(=O)c2ccc(C#Cc3cccc(F)c3)cc2O[C@H]1CN(C)C
    ? | /
[41] O=C(NCC[C@H]1CC[C@@H](NS(=O)(=O)c2ccccc2F)[C@H](CO)O1)c1ccc(F)cc1
    -10 | -8
[42] COc1ccc2c3c(n(C)c2c1)[C@H](CO)N(C(=O)c1ccncc1)CC31CCN(CC2CC2)CC1
    -12 | -5
[43] O=C(N[C@H]1CC[C@H](CCNS(=O)(=O)c2ccc(F)cc2)O[C@H]1CO)c1cnccn1
    -8 | -1
[44] O=C(C[C@H]1CC[C@H]2[C@@H](COC[C@@H](O)CN2S(=O)(=O)c2ccccc2)O1)Nc1ccccc1
    0 | 1
[45] O=C(NCc1ccc(F)cc1)[C@H]1C[C@H]2C(=O)NCC(=O)N2[C@H]1c1ccc(O)cc1
    9 | 7
[46] O=C(C[C@H]1CC[C@@H]2[C@H](COC[C@H](O)CN2Cc2ccc3c(c2)OCO3)O1)N1CCOCC1
    13 | 9
[47] C[C@@H](NC(=O)C[C@H]1CC[C@H]2[C@@H](COC[C@H](O)CN2Cc2ccc(C(F)(F)F)cc2)O1)c1ccccc1
    -24 | -18
[48] O=C(Nc1cc(F)ccc1F)N1CC(=O)N2[C@H](CO)[C@H](c3ccc(C#CC4CCCCC4)cc3)[C@@H]2C1
    -28 | -48
[49] CC(=O)N(C)C[C@@H]1Oc2cc(-c3cccc(F)c3)ccc2S(=O)(=O)N([C@@H](C)CO)C[C@@H]1C
    7 | 14
[50] C[C@@H]1CN([C@@H](C)CO)C(=O)c2cc(C3=CCCC3)cnc2O[C@H]1CN(C)C(=O)Nc1ccccc1
    14 | 7
[51] C[C@@H]1CN([C@H](C)CO)C(=O)Cc2cc(NC(=O)Cc3cn(C)c4ccccc34)ccc2O[C@@H]1CN(C)C(=O)NC1CCCCC1
    29 | 11
[52] O=C(C[C@H]1CC[C@H]2[C@@H](COC[C@H](O)CN2C(=O)Nc2ccc(Cl)c(Cl)c2)O1)NCc1ccccc1
    ? | /
[53] C[C@H](CO)N1C[C@H](C)[C@@H](CN(C)S(=O)(=O)c2ccc(F)cc2)OCc2cn(nn2)CCCC1=O
    19 | 10
[54] Cc1ccc(-c2ccc([C@H]3[C@@H](CO)N4CCCCN(C(=O)c5ccc(F)cc5)C[C@@H]34)cc2)cc1
    ? | /
[55] Cc1noc(C)c1NC(=O)N(C)C[C@H]1Oc2c(cccc2N(C)C)C(=O)N([C@H](C)CO)C[C@H]1C
    21 | 1
[56] COc1ccc(C#Cc2ccc3c(c2)[C@]2(C(=O)N3)[C@H](C(=O)N3CCN(c4ncccn4)CC3)[C@H]3C(=O)O[C@H](c4ccccc4)[C@H](c4ccccc4)N3[C@@H]2c2ccc(O)cc2)cc1
    -8 | -9
[57] COc1ccc(NC(=O)Nc2ccc3c(c2)CC(=O)N([C@H](C)CO)C[C@@H](C)[C@H](CN(C)S(=O)(=O)c2ccc(OC)cc2)O3)cc1
    4 | 2
[58] COc1ccc(NC(=O)N(C)C[C@@H]2OCCCC[C@H](C)Oc3ccc(N(C)C)cc3C(=O)N([C@@H](C)CO)C[C@@H]2C)cc1
    -14 | -19
[59] Cc1noc(C)c1NC(=O)N(C)C[C@@H]1Oc2ccc(NC(=O)NC3CCCCC3)cc2CC(=O)N([C@H](C)CO)C[C@H]1C
    7 | 11
[60] CCC(=O)N1CC2(CCN(C(=O)NC(C)C)CC2)c2c(n(C)c3cc(OC)ccc23)[C@@H]1CO
    5 | -4
[61] CCC(=O)Nc1ccc2c(c1)OC[C@@H](C)N(C(=O)c1ccccn1)C[C@@H](C)[C@H](OC)CN(C)C2=O
    2 | -1
[62] COc1ccccc1-c1cnc2c(c1)C(=O)N([C@H](C)CO)C[C@@H](C)[C@H](CN(C)Cc1ccncc1)O2
    2 | 4
[63] CN1C(=O)c2cc(NC(=O)C3CC3)ccc2OC[C@@H]2O[C@H](CC(=O)NCCc3ccncc3)CC[C@@H]21
    5 | 7
[64] C[C@@H]1CCCCO[C@H](CN(C)C)[C@@H](C)CN([C@H](C)CO)C(=O)c2cc(NS(C)(=O)=O)ccc2O1
    21 | 13
[65] Cc1ccc(S(=O)(=O)N(C)C[C@H]2Oc3ccc(NC(=O)Nc4ccccc4)cc3CC(=O)N([C@@H](C)CO)C[C@H]2C)cc1
    ? | /
[66] C[C@H](CO)N1C[C@H](C)[C@@H](CN(C)C(=O)c2ccc3c(c2)OCO3)Oc2ncc(C#CCN(C)C)cc2C1=O
    0 | -1
[67] C[C@@H]1CCCCO[C@H](CN(C)C(=O)Nc2ccc3c(c2)OCO3)[C@H](C)CN([C@H](C)CO)C(=O)c2cc(NC(=O)Nc3ccccc3)ccc2O1
    0 | 0
[68] C/C=C/c1ccc([C@@H]2[C@H]3CN(C(=O)c4cnccn4)CC(=O)N3[C@H]2CO)cc1
    9 | 2
[69] Cc1noc(C)c1NC(=O)Nc1ccc2c(c1)C(=O)N([C@H](C)CO)C[C@H](C)[C@@H](CN(C)CC1CCCCC1)OCCCC[C@H](C)O2
    9 | 6
[70] CC(C)NC(=O)Nc1ccc2c(c1)C(=O)N([C@H](C)CO)C[C@H](C)[C@H](CN(C)C(=O)Nc1cccc3ccccc13)OCCCC[C@H](C)O2
    -2 | 5

(list continues)
Values in the order: Vaccinia inh | Vaccinia inh Venus
[71] C[C@@H]1CN([C@@H](C)CO)C(=O)Cc2cc(NC(=O)Cc3cn(C)c4ccccc34)ccc2O[C@H]1CN(C)S(C)(=O)=O
    14 | 12
[72] C[C@@H]1CN([C@H](C)CO)C(=O)c2cc(NS(=O)(=O)c3ccccc3)ccc2O[C@@H]1CN(C)CC1CCCCC1
    -4 | -10
[73] N#C[C@@H]1[C@H](c2ccc(C3=CCCC3)cc2)[C@@H](CO)N1C(=O)C1CC1
    9 | 7
[74] C[C@H](CO)N1C[C@H](C)[C@H](CN(C)CC2CC2)OCCCC[C@H](C)Oc2ccc(NS(=O)(=O)c3ccccc3)cc2C1=O
    -10 | -14

Taken from the entries so far for reference:
Values in the order: Vaccinia inh | Vaccinia inh Venus
[6] C[C@@H]1CN([C@H](C)CO)C(=O)c2cc(NC(=O)C3CC3)ccc2O[C@@H]1CN(C)CC1CC1
    -8 | -2
[7] OCCSCC(O)CC(O)c1ccccc1 (centres undefined)
    20 | 11
[8] C[C@@H]1CCCCO[C@H](CN(C)S(=O)(=O)c2cccs2)[C@@H](C)CN([C@H](C)CO)C(=O)c2cc(NS(=O)(=O)c3ccc(Cl)cc3)ccc2O1
    17 | -3
[9] Cc1cccc(S(=O)(=O)N(C)C[C@H]2OCc3cnnn3CCCC(=O)N([C@H](C)CO)C[C@H]2C)c1
    26&4 | 10&4
[10] COc1ccc(S(=O)(=O)N[C@H]2CC[C@@H](CCNC(=O)CN3CCOCC3)O[C@@H]2CO)cc1
    11 | 19

Some of the compounds tested; rates above refer to the full screens.
